gsp antag: antagonists of gsp mutant (McCune-Albright syndrome); gsp-mutant cells, cAMP HTRF, 30 min; control for the full effect not named in the record; Potency, µM (titrated, usually from 76.9 µM), without a hit: at the highest dose activity change, negative = inhibition, actives largely listed as inhibitors; 0.4% of 340,000 active; AID 624288; active = falling curve of any shape with a large fitted effect; inconclusive = falling curve, mostly with a smaller effect; inactive = flat or rising curve; cell line not stated here;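 note: intracellular cAMP measured with PDE inhibitor Ro 20-1724 present during compound exposure; potency is the fitted concentration of half-maximal effect; % is set by controls: 0 for no effect and ±100 for the full control effect; nearly all actives have a fitted effect of over 65% in size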
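HTRF cAMP measurement after 30 min RT detection following 30 min, 37C compound treatment alongside […] (added as 300 uM solution) in G418-selected cells seeded at 2000/well and grown 16–24 h.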
TRPML1 blocker: human mucolipin-1 channel inhibition; TRPML1-inducible cells, Ca2+ dye fluorescence, FDSS; hits give low values; inhibition of EC80 agonist-evoked calcium signal; activity change, negative = inhibition, % (concentration not given with the values); 0.02% of 390,000 active; Q9GZU1; in the data active means activity change below about -50%; inconclusive means about -30% to -50%; inactive means above about -30%;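 note: stimulus is agonist 54-4 at its EC80 concentration; % is set by controls: 0 for no effect and ±100 for the full control effect; compound concentration not given in the record; the text of the record puts the active cut at -80%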
Target sequence (Q9GZU1 whole entry, looked up): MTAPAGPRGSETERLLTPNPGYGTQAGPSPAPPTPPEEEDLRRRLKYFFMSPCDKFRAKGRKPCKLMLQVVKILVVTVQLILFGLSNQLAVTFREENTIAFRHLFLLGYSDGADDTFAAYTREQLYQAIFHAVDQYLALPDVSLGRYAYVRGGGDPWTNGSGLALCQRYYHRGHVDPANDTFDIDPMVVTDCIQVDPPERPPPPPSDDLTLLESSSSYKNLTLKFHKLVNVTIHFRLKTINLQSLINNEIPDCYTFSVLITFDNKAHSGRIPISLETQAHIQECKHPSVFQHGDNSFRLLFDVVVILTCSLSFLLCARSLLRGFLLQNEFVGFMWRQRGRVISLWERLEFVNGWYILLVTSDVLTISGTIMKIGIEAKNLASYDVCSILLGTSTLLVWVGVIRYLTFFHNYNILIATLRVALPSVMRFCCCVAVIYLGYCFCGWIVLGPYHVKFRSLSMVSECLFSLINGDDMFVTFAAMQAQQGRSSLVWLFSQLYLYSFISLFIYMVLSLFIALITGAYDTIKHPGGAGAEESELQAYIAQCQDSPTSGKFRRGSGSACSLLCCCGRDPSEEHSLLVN
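Tet-induced TRPML1-DL cells loaded with Ca8 no-wash calcium dye were read kinetically on FDSS. Compound addition was followed by EC80 agonist 54-4 (4 uM final); inhibition was read over 110 s.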
gsp agonist: activates gsp, the McCune-Albright syndrome mutation; gsp mutant cells, cAMP HTRF, 30 min; control for the full effect not named in the record; Potency, µM (highest dose often 76.9 µM), for the others: at the top dose activation (cAMP increase), usual class: activators; 0.13% of 340,000 active; AID 624287; active = well fitted activation curve with a large enough effect; inconclusive = small, poorly fitted or top-dose-only effect, or another doubt; inactive = no such curve, though single readings can be large or run the other way; cell line not stated here;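 note: phosphodiesterase inhibitor Ro 20-1724 added with compounds to block cAMP breakdown; potency is the fitted concentration of half-maximal effect; nearly all actives have a fitted effect of over 60% in size; about a fifth of the inactives were tested at one dose only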
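Cells stably selected in G418 were plated at 2000/well, grown 16-24 hr, then given compounds in DMSO with the PDE inhibitor […] (300 uM solution added) for 30 min at 37C; cAMP was read by HTRF.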
TRPML1 ag: activates the human TRPML1 channel | Q9GZU1 | TRPML1-expressing cells, Ca2+ dye fluorescence, FDSS; host cell line not named in the record; reference of the full effect not given here | activation, % (concentration not given with the values) | 0.12% of 410,000 active | AID 624414; in the data active = activation above about 50%; inconclusive = about 30% to 50%; inactive = below about 30%; note: 0% is about no effect; the text of the record puts the active cut at 80%
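Tetracycline-induced TRPML1-DL cells are seeded and incubated overnight before loading with a no-wash Ca2+ dye and quencher. Agonist activity is taken from the 110 s fluorescence read following compound pin-transfer on an FDSS, before EC80 54-4 challenge.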
ClpP mod: qHTS Assay for Activators of ClpP; Potency, µM (doses to about 57.5 µM), without a hit: at the highest dose activity change, negative = active; ATP-dependent Clp protease proteolytic subunit (Bacillus subtilis (strain 168)), P80244; AID 651965, 2013; 1.9% of 340,000 active; purified B. subtilis ClpP, FRET peptide cleavage, 20 min; active = well fitted falling curve with a large enough effect; inconclusive = small, poorly fitted or top-dose-only effect; inactive = no such curve, though single readings can be large or run the other way; note: potency is the fitted concentration of half-maximal effect; the source files actives as falling curves though it sought activators and does not explain the sign; nearly all actives have a fitted effect of over 65% in size; many hits overshoot -100%
Target sequence (P80244 whole entry, looked up): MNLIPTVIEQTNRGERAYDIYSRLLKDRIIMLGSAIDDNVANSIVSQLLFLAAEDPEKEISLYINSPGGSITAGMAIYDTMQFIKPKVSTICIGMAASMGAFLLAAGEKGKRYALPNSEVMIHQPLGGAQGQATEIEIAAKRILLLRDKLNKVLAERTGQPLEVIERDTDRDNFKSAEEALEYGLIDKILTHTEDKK
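Buffer: 100 mM Tris/HCl pH8, 100 mM KCl, 0.05% low protease BSA, 2.5% glycerol, 0.01% Tween-20. ClpP 10 microg/mL final; 20 min RT; delta FRET normalized to ADEP and DMSO controls.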
Menin MLL FP FL: inhibitors of human menin-MLL interaction, wild-type MLL peptide; Fluorescence polarization, fluorescein-MLL peptide displacement from menin; 290,000 tested, under 10 active; FP activity change, % at 61.4 µM; inconclusive = falling polarisation curve, or a change in total fluorescence; inactive = total fluorescence flat and polarisation flat or rising; no compound was filed as active; the % refers to the polarisation; negative = inhibition;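 note: % of control where 0% means no effect; inhibitors lower the polarisation; unlabelled MLL peptide was the positive control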
* hit, by the source's call; & = joins results of further samples; [ ] = dose if it differs, or a comment.

Results for CCOC(=O)c1nnn(-c2nonc2-n2cccc2)c1CN1CCOCC1 ?
gsp antag: 1%; TRPML1 blocker: -13; gsp agonist: 26%; TRPML1 ag: 0.4; ClpP mod: 0.2%; Menin MLL FP FL: 2.7

Results for c1ccc2c(C3OCC4(CCCCC4)CO3)cccc2c1 ?
TRPML1 blocker: -1; gsp agonist: -11%; TRPML1 ag: 1.2; ClpP mod: 1.2%

How did CCOC(=O)c1sc(NC(=O)COC(=O)Cn2cnc3ccccc32)c(C(=O)OCC)c1C do in these assays?
gsp antag: 7%; TRPML1 blocker: -1; gsp agonist: 1%; TRPML1 ag: 0.5; ClpP mod: -0.4%; Menin MLL FP FL: -2.5

How did N#Cc1c(-c2ccco2)cc(C2CC2)nc1SCC(=O)c1ccccc1 do in these assays?
gsp antag: 8%; TRPML1 blocker: -5; gsp agonist: 28%; TRPML1 ag: 2.5; ClpP mod: -9.7%; Menin MLL FP FL: 10

How did Cc1ccc(-n2ncc3ccccc3c2=O)cc1Cl do in these assays?
gsp antag: -4%; TRPML1 blocker: 1; gsp agonist: -1%; TRPML1 ag: 4.4; ClpP mod: -0.5%; Menin MLL FP FL: 0.1

What do the screens show for `CCN(CC)c1ccc(/C=N/NC(=O)CNC(=O)c2cccs2)cc1`?
gsp antag: -1%; TRPML1 blocker: 8; gsp agonist: -2%[15.4 µM]; TRPML1 ag: 1.4; ClpP mod: 1.0%; Menin MLL FP FL: 2.4

What do the screens show for `Cc1ccccc1-c1nnc(CS(=O)(=O)c2ccccc2)o1`?
gsp antag: 2%; TRPML1 blocker: 11; gsp agonist: inconclusive; TRPML1 ag: 1.0; Menin MLL FP FL: -8.8

How did O=C(COC(=O)c1ccccn1)Nc1nc(-c2ccccc2)cs1 do in these assays?
gsp antag: -2%; TRPML1 blocker: 8; gsp agonist: 8%; TRPML1 ag: 1.3; Menin MLL FP FL: -0.2

Results for Cc1cc(NC(=O)Nc2cccc([N+](=O)[O-])c2)no1 ?
gsp antag: 1%; TRPML1 blocker: -15; gsp agonist: 0%; TRPML1 ag: 1.4; ClpP mod: 3.8%; Menin MLL FP FL: 0.0

Results for CC1(C)CNC(=O)c2sc(NC(=O)CN3CCOCC3)nc2C1 ?
gsp antag: 8%; TRPML1 blocker: -1; gsp agonist: 4%; TRPML1 ag: 0.1; ClpP mod: 0.3%; Menin MLL FP FL: 5.0

Of the compounds above, 2 have a thiophene ring, fused or not:
How did CCOC(=O)c1sc(NC(=O)COC(=O)Cn2cnc3ccccc32)c(C(=O)OCC)c1C do in these assays?
gsp antag: 7%; TRPML1 blocker: -1; gsp agonist: 1%; TRPML1 ag: 0.5; ClpP mod: -0.4%; Menin MLL FP FL: -2.5

What do the screens show for `CCN(CC)c1ccc(/C=N/NC(=O)CNC(=O)c2cccs2)cc1`?
gsp antag: -1%; TRPML1 blocker: 8; gsp agonist: -2%[15.4 µM]; TRPML1 ag: 1.4; ClpP mod: 1.0%; Menin MLL FP FL: 2.4

(next part)
How did Cc1cc(C(=O)NNC(=S)NCc2ccccc2)no1 do in these assays?
gsp antag: -1%; TRPML1 blocker: 17; gsp agonist: -40%[inhibitor]; TRPML1 ag: 0.8; ClpP mod: -1.3%; Menin MLL FP FL: 1.2

Results for COc1cc(OC)c(C2=NOC(C(=O)Nc3c(C)n(C)n(-c4ccccc4)c3=O)C2)cc1Cl (configuration not stated) ?
gsp antag: -3%; TRPML1 blocker: 6; gsp agonist: -1%[15.4 µM]; TRPML1 ag: 0.2; ClpP mod: 1.0%; Menin MLL FP FL: -3.9

Results for CCN(CC)C(=S)SCC(=O)Nc1ncc2c(n1)CC(C)(C)CC2=O ?
gsp antag: -18%; TRPML1 blocker: -5; gsp agonist: -3%[15.4 µM]; TRPML1 ag: -0.4; Menin MLL FP FL: -1.4

How did CSCCC(NS(=O)(=O)c1ccc(C)cc1C)C(=O)Nc1cccnc1 (configuration not stated) do in these assays?
gsp antag: -2%; TRPML1 blocker: 4; gsp agonist: 0%[15.4 µM]; TRPML1 ag: -0.7; ClpP mod: 0.6%

What do the screens show for `C=CCSC1=Nc2cc(OC)c(OC)cc2C2=NC(=O)CN12`?
gsp antag: -7%; TRPML1 blocker: -8; gsp agonist: 15%; TRPML1 ag: 1.1; ClpP mod: 4.2%; Menin MLL FP FL: -4.4

What do the screens show for `CC(C)(C)c1cc(CN(CCO)CCO)cc(C(C)(C)C)c1O`?
gsp antag: -16%; TRPML1 blocker: 23; gsp agonist: inconclusive; TRPML1 ag: 0.0; ClpP mod: -2.1%; Menin MLL FP FL: 2.5

What do the screens show for `CCN(CC(=O)Nc1ccccc1OC)C(=O)c1ccc(NC(=O)c2cccs2)cc1`?
gsp antag: -26%; TRPML1 blocker: 7; gsp agonist: -3%; TRPML1 ag: -0.8; ClpP mod: 2.2%

What do the screens show for `CCOC(=O)C1CCN(C(=O)CCCCn2c(=O)[nH]c3ccccc3c2=O)CC1`?
gsp antag: -25%; TRPML1 blocker: -3; gsp agonist: 0%; TRPML1 ag: -0.6; ClpP mod: -22%; Menin MLL FP FL: 2.7

Results for O=C(COC(=O)c1ccc(Cl)cc1Cl)Nc1cccc(S(=O)(=O)NC2=NCCC2)c1 ?
gsp antag: -22%; TRPML1 blocker: 26; gsp agonist: inconclusive; TRPML1 ag: 4.1; ClpP mod: -4.2%

What do the screens show for `Cc1cccnc1NC(=O)Cn1nc(-c2ccccc2)oc1=S`?
gsp antag: 2%; TRPML1 blocker: 1; gsp agonist: -6%[15.4 µM]; TRPML1 ag: 0.3; ClpP mod: -0.7%; Menin MLL FP FL: 2.9

How did O=S(=O)(c1ccc2c(c1)OCCO2)N1CCC(n2nnc3cc(C(F)(F)F)ccc32)CC1 do in these assays?
gsp antag: -23%; TRPML1 blocker: 10; gsp agonist: inconclusive; TRPML1 ag: 3.0; ClpP mod: -0.4%; Menin MLL FP FL: -0.8

What do the screens show for `CCCN(CC1CC1)c1nc(C)nc(Nc2c(Cl)cc(Cl)cc2Cl)c1Cl`?
gsp antag: -3%; TRPML1 blocker: -10; TRPML1 ag: 0.0; ClpP mod: -0.3%; Menin MLL FP FL: 1.8&0.0

Results for Cc1ccnc(NS(=O)(=O)c2ccc(NC(=O)c3cncc(Br)c3)cc2)n1 ?
gsp antag: 9%; TRPML1 blocker: -14; gsp agonist: inconclusive; TRPML1 ag: -0.7; ClpP mod: -0.6%; Menin MLL FP FL: 6.9

Results for COc1ccc(/C=C/C(=O)c2ccc[nH]2)cc1OC ?
gsp antag: -4%; TRPML1 blocker: -7; gsp agonist: 14%; TRPML1 ag: 2.1; ClpP mod: -6.7%; Menin MLL FP FL: 2.9

Results for CCOC(=O)C1=C(C)NC(C)=C(C(=O)OCC)C1C(=O)OCC(=O)NC1(C#N)CCCCC1 ?
gsp antag: 0%; TRPML1 blocker: 6; gsp agonist: -4%[15.4 µM]; TRPML1 ag: 0.1; ClpP mod: -19%

How did COc1ccc(-c2nc3c(Cl)cc(C(F)(F)F)cn3c2Cc2cccc(F)c2)cc1OC do in these assays?
TRPML1 blocker: -2; TRPML1 ag: 0.2; ClpP mod: inconclusive

Results for FC(F)(F)C1=CC(c2ccc(Cl)cc2)=NCCN1 ?
gsp antag: -2%; TRPML1 blocker: 7; gsp agonist: 15%; TRPML1 ag: -0.2; ClpP mod: -25%; Menin MLL FP FL: -0.9

How did CC(C)c1ccc(S(=O)(=O)/N=C2/C=C(Sc3ncn[nH]3)C(=O)c3ccccc32)cc1 do in these assays?
gsp antag: 7%; TRPML1 blocker: -10; gsp agonist: inconclusive; TRPML1 ag: -0.1; ClpP mod: -6.1%; Menin MLL FP FL: inconclusive

What do the screens show for `CCC(C)(C)c1ccc(OC(=O)c2cccnc2Cl)cc1`?
gsp antag: -8%; TRPML1 blocker: 3; gsp agonist: -2%; TRPML1 ag: -0.1; Menin MLL FP FL: -3.5

What do the screens show for `COc1ccc(C2C=C(c3ccccc3)Nc3nc(NC(=O)c4ccc(C)cc4)nn32)cc1` (configuration not stated)?
TRPML1 blocker: -7; TRPML1 ag: 18; ClpP mod: 4.9%

How did O=C(COC(=O)[C@@H]1CC(O)CN1S(=O)(=O)c1ccc([N+](=O)[O-])cc1)NC12CC3CC(CC(C3)C1)C2 (some centres not stated) do in these assays?
gsp antag: -5%; TRPML1 blocker: 7; gsp agonist: -14%; TRPML1 ag: 0.5; ClpP mod: 0.6%; Menin MLL FP FL: 1.4

How did CCOCCCNC(=O)C(NC(=O)CNC(=O)c1ccccc1)c1ccc(C)cc1 (configuration not stated) do in these assays?
gsp antag: -1%; TRPML1 blocker: -19; gsp agonist: 4%; TRPML1 ag: 0.3; ClpP mod: -1.6%; Menin MLL FP FL: 1.1

Results for COC(=O)CSc1nc2cc(OC)ccc2n1C ?
gsp antag: 7%; TRPML1 blocker: 2; gsp agonist: 6%; TRPML1 ag: -0.5; ClpP mod: -4.3%; Menin MLL FP FL: 1.4

How did O=C(Nc1ccccc1)Nc1cccc(NC(=O)Nc2ccccc2)c1F do in these assays?
gsp antag: 5%; TRPML1 blocker: -8; gsp agonist: -26%; TRPML1 ag: 1.1; Menin MLL FP FL: 12

How did O=C(CSc1nnc(NC(=O)C2CC2)s1)NCc1ccc(F)cc1 do in these assays?
gsp antag: 5%; TRPML1 blocker: 29; gsp agonist: -28%; TRPML1 ag: 1.3; ClpP mod: -1.7%

Results for CC1CCN(c2ccc(C(=O)Nc3ccc4c(c3)OCO4)cc2[N+](=O)[O-])CC1 ?
gsp antag: -19%; TRPML1 blocker: 7; gsp agonist: -2%[15.4 µM]; TRPML1 ag: 0.1; Menin MLL FP FL: -0.6

Results for COc1ccc(CCNc2ncnc3c2nnn3C)cc1OC ?
TRPML1 blocker: 13; TRPML1 ag: 2.4; ClpP mod: 0.8%

Results for COc1ccc(-c2sc3cc(OC)ccc3c2-c2ccc(OCCN3CCOCC3)cc2)cc1 ?
gsp antag: 10%; TRPML1 blocker: 55; TRPML1 ag: 0.5; ClpP mod: 5.3%

What do the screens show for `COC(=O)c1cc(NC(=O)CC2Oc3ccccc3NC2=O)cc(C(=O)OC)c1` (configuration not stated)?
gsp antag: -7%; TRPML1 blocker: -27; gsp agonist: -14%; TRPML1 ag: -0.4; Menin MLL FP FL: -2.2

How did COc1ccc(Oc2ccc(N/C=C3\CCCC3=O)cc2)cc1 do in these assays?
gsp antag: -19%; TRPML1 blocker: -1; gsp agonist: 5%; TRPML1 ag: 0.5; ClpP mod: -0.8%; Menin MLL FP FL: 1.0

What do the screens show for `O=C(NCCO)c1nc(C(=O)c2ccccc2)c2ccccc2n1`?
gsp antag: 4%; TRPML1 blocker: -2; TRPML1 ag: -0.7; ClpP mod: -0.2%
